Screens deposited in PubChem BioAssay by Broad Institute.
Calb FLC – C. albicans growth modulation with fluconazole; AID 1979; C. albicans CaCi-2 (fluconazole-resistant clinical isolate) + fluconazole, Alamar Blue growth, 48 h; 0.57% of 300,000 active; growth inhibition, % (concentration not given with the values);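 active = most replicates above 75%; inconclusive = exactly half above 75%; inactive = most below 75%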;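 also: all wells also contain fluconazole at 8 µg/ml as a sub-toxic cotreatment; 0% = median of DMSO wells and 100% = median of geldanamycin control wells; wells of about 8 µL received 7.5 nL stock; the first replicate is given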
T cruzi inh – T. cruzi replication inhibition; T. cruzi beta-gal in NIH3T3, luminescence, 90 h; 1.4% of 300,000 active; inhibition, % (test concentration not listed);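 active = mean inhibition across valid replicates above about 55%, limit read from the data; inconclusive = mean below that limit but half or more replicates reach it; inactive = mean below it, under half of replicates reach it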;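 also: signal also drops with host cell toxicity which is not excluded here; 0% = plate median of DMSO wells and 100% = zero luminescence signal; higher percent means less beta-gal luminescence so fewer parasites; stock transfer was 50 nL into about 50 µL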
Ecoli rRNA inh – selective bacterial rRNA inhibition in E. coli | AID 720706 | E. coli WT GFP vs humanized-ribosome RFP mutants, fluorescence, 24 h; active compounds read low; DMSO median 0, no signal -100 | 1.6% of 350,000 active | GFP signal change (wild-type ribosome), % (concentration not given with the values);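 active = significant combined selectivity score with lowered wild-type GFP, culture density cut under 30%, mutant RFP and density less affected; inactive = any of these conditions unmet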; also: one replicate is shown; some compounds called inactive have numbers as strong as hits
AF4-AF9 inh – blocks AF4 peptide binding to human AF9. inhibition, % at 10 µM. AID 651704. 0.47% of 350,000 active. AlphaScreen, biotin-AF4 peptide binding to FLAG-AF9;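 active = every replicate reaching a set inhibition limit, whatever the replicate mean, cut at about 25% in these data; inconclusive = mean inhibition reaches that limit but some replicates miss it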;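 also: 0% = plate neutral control median and 100% = total signal loss; the record names both 10 and 1 µM as test concentration; the first replicate is given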
Target sequence (P42568 whole entry, looked up): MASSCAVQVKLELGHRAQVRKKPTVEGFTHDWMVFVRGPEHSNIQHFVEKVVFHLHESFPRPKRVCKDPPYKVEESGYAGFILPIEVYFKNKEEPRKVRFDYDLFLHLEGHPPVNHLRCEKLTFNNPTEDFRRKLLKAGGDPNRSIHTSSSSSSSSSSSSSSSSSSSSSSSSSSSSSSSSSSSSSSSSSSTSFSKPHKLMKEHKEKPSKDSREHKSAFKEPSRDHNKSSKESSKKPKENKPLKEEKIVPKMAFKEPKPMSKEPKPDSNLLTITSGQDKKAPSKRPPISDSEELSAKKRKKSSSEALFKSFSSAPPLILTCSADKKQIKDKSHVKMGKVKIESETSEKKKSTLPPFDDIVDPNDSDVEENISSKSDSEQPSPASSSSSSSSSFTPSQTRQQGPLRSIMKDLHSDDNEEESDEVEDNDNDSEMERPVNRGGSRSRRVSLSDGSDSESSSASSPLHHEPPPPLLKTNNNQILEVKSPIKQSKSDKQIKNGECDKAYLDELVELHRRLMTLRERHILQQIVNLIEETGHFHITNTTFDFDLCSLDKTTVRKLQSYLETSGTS
ALR inh – blocks human ALR sulfhydryl oxidase activity. P55789. purified ALR, DTT oxidation, H2O2 HRP-luminol luminescence. inhibition, % (concentration not given with the values). 3.8% of 290,000 active. AID 485317;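 active = mean and each replicate at 75% or more; inconclusive = only one of the two met; inactive = neither met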;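 also: stock transfer was 7.5 nL into about 7.5 µL; 0% = neutral wells and 100% = wells with inactivated enzyme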
Target sequence (P55789 whole entry, looked up): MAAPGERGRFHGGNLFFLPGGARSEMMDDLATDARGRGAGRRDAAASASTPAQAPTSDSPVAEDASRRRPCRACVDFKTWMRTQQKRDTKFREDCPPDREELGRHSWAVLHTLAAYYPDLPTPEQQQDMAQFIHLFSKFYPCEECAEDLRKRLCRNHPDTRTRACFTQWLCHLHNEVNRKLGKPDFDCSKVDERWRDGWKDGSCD
RanGTP-Imp inh – disruptors of Ran-importin-beta complex formation – biochemical, FRET, CFP-Ran, YFP-importin-beta, homogeneous, primary screen | cell-free CFP-Ran/YFP-importin-beta FRET ratio | inhibition, % (no concentration beside the values) | 1.1% of 300,000 active | AID 2216;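 active = most replicates above 15%; inconclusive = exactly half above 15%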;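 also: 0% = DMSO wells and 100% = Ran loaded with GDP instead of GTP; wells of about 40 µL received 100 nL stock; the first replicate is given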
FGF22 binding – FGF22 (human) thermal shift binding. Q9HCT0. 1.5% of 340,000 active. recombinant FGF22 thermal shift, SYPRO orange fluorescence; percent of sucrose octasulfate shift, DMSO zero. calls only at 9.99 µM. AID 651658;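 active = melting point raised past a set limit in the mean and every replicate; inconclusive = no clear call; three in four hits are not shown here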
Target sequence (Q9HCT0 whole entry, looked up): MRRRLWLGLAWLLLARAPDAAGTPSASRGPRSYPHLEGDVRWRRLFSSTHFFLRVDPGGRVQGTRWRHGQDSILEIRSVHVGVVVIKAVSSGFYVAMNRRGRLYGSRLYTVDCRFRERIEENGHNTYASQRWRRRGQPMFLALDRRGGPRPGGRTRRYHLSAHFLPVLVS
Beta cell apopt – beta cell apoptosis inhibition; protection from apoptosis, % (concentration not given with the values); INS-1E cytokine-induced death, ATP luminescence, 48 h; percent of positive-control rescue, neutral wells zero; 0.8% of 300,000 active;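 active = all replicates at 75% or more, or half of them and the mean; inconclusive = half reach 75% but not the mean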;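 also: 0% = cytokine-treated negative control wells and 100% = positive control rescue; higher means more ATP so stronger rescue from cytokine killing; wells of about 40 µL received 100 nL stock; the first replicate is given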
Ecoli rRNA inh OD600 – further read-out of Ecoli rRNA inh, marked with its call; OD600 change, %; measured here: OD600 growth;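 optical density of the mix in the first replicate; 0 = DMSO median and -100 = no signal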
Ecoli rRNA inh RFP – further read-out of Ecoli rRNA inh, marked with its call; RFP signal change, %; measured here: RFP humanized mutant strains;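 first replicate; 0 = DMSO median and -100 = no signal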
The depositor's hits bear a star; i = inactive; ? = inconclusive; . = no result given. An excerpt; rates above refer to the full screens.

SMILES | Calb FLC | T cruzi inh | Ecoli rRNA inh | Ecoli rRNA inh OD600 | Ecoli rRNA inh RFP | AF4-AF9 inh | ALR inh | RanGTP-Imp inh | FGF22 binding | Beta cell apopt
Cc1[nH]n(C(N)=S)c(=O)c1N=Nc1cc(C(F)(F)F)ccc1Cl | -2 | -27 | 0 | -4 | 0.8 | 1.2 | 38 | -2.4 | i | 12
Nc1ncnc2c1nc(Sc1ccc(Cl)cc1)n2[C@@H]1O[C@@H]2COP(=O)(O)O[C@H]2[C@H]1O | -3 | 1 | . | . | . | 0.2 | -1 | ? | i | .
COc1ccc(C(=O)Nc2cnc(NC(=O)c3cccs3)cc2C)cc1 | 0 | -8 | -7 | -19 | -0.6 | 1.5 | -7 | ? | i | 9
O=C(N/N=C/c1cccc2ccccc12)c1cc2ccccc2o1 | -3 | -19 | -6 | -8 | 1.1 | -2.2 | . | 3.9 | i | .
O=S(=O)(c1ccc(Br)cc1)N1CCCN(Cc2ccccc2F)CC1 | 0 | 10 | . | . | . | . | -5 | -4.5 | . | 4
CCOC(=O)C(c1ccccc1)N1CCN(c2ccc(OC)cc2)CC1 (stereo not drawn) | 3 | 0 | -6 | -4 | -7.6 | . | 38 | 0.0 | . | 0
O=C(Cn1nc(-c2ccc(Cl)cc2)ccc1=O)NCc1ccc2c(c1)OCO2 | -7 | -6 | 7 | 10 | 2.1 | ? | . | 8.0 | i | -3
Cc1c(CCC(=O)NC2CC2)c(=O)oc2cc(O)ccc12 | 0 | 0 | 4 | 6 | -8.8 | -2.5 | 57 | 4.4 | i | .
O=C(Cn1cccn1)N1CCCC(Nc2ccc(F)c(F)c2)C1 (stereo not drawn) | 8 | -5 | 5 | 12 | 1.5 | -1.2 | 89* | ? | i | 6
O=C(Cn1cnc2ccccc21)Nc1ccc(F)c(F)c1 | -21 | 1 | -21 | -25 | 13 | -0.8 | -8 | 5.6 | i | 2
O=C(Nc1cccc(C(=O)O)c1)/C(=C\c1ccc(F)cc1)NC(=O)c1ccco1 | ? | -6 | 7 | 6 | 1.0 | -1.1 | 2 | 5.4 | i | -4
Cc1ccccc1-n1nnnc1SCc1cc(=O)n2ccsc2n1 | 2 | 15 | 10 | -1 | 6.9 | . | . | 3.7 | i | 4
COc1ccccc1CNC(=O)C(CC(C)C)NC(=O)C1CCC(C)CC1 (stereo not drawn) | -28 | 4 | . | . | . | . | -15 | 1.1 | . | 5
O=C(NC1CCCC1)C(c1ccncc1)N(CCCN1CCOCC1)C(=O)c1ccc(-c2ccccc2)[nH]1 (stereo not drawn) | 0 | 35 | -11 | -8 | 2.3 | 11 | 51 | 0.4 | i | 3
Cc1cc(NC(=O)c2ccccc2-c2ccccc2C(=O)O)no1 | -5 | -11 | . | . | . | . | -4 | 1.3 | . | -3
CCN(CC)C(=O)CSc1nnc(-c2ccco2)o1 | -1 | -18 | . | . | . | . | -13 | 0.9 | . | -3
Cc1cc(C(=O)OCC(=O)N2CCC(C)CC2)c2ccccc2n1 | . | . | 0 | -9 | -2.3 | 0.5 | -3 | . | i | 0
Cc1ccc(CN(C(=O)COc2cccc(C)c2C)C2CCS(=O)(=O)C2)o1 (stereo not drawn) | 3 | -7 | -7 | -5 | 0.6 | 5.3 | 11 | -1.5 | i | 0
COc1cc(C=O)ccc1OCC(=O)Nc1ccc2c(c1)OCO2 | 6 | -10 | 9 | 8 | 3.2 | 2.0 | -5 | -2.2 | i | -8
COC(=O)c1ccc(COc2ccc(NC(C)=O)cc2)o1 | -4 | -18 | 3 | 7 | 0.5 | -0.8 | -21 | -3.1 | i | 3
N#CC(C#N)=CN=c1ccn(Cc2ccc(Cl)cc2Cl)cc1 | -10 | -1 | 3 | 9 | 0.9 | -1.4 | -8 | 1.8 | i | 58
CCOC(=O)c1cnc(C(F)(F)F)nc1Oc1ccccc1 | 10 | -16 | 5 | -15 | -5.2 | -0.9 | -4 | ? | i | -5
Cc1ccc(NC(=O)c2ccco2)c(NC(=O)COc2ccccc2)c1 | 2 | 1 | -2 | -13 | 0.0 | -5.2 | -3 | ? | i | -5
CC1CN(c2ccc(NS(=O)(=O)c3ccccc3)cc2C(=O)O)CC(C)O1 (stereo not drawn) | 6 | -1 | 1 | 2 | -0.6 | -2.4 | 17 | 0.3 | i | 0
COc1ccc(S(N)(=O)=O)cc1C(=O)NNC(=O)CN(C)S(=O)(=O)c1ccc(Cl)cc1 | . | . | 16 | 9 | 1.8 | -1.3 | -3 | . | i | 1

(further entries)
SMILES | Calb FLC | T cruzi inh | Ecoli rRNA inh | Ecoli rRNA inh OD600 | Ecoli rRNA inh RFP | AF4-AF9 inh | ALR inh | RanGTP-Imp inh | FGF22 binding | Beta cell apopt
O=C(Cc1cccs1)Nc1ccc(N2CCOCC2)cc1 | -3 | -8 | 9 | 6 | 3.1 | . | 31 | 2.2 | . | -6
COc1ccc([N+](=O)[O-])cc1NC(=O)CCN1CCN(C)CC1 | 4 | 1 | 12 | 8 | 4.1 | 0.0 | -5 | -4.6 | i | -4
CN(C)S(=O)(=O)c1cccc(NC(=O)COc2nc3ccccc3nc2N2CCOCC2)c1 | -26 | 10 | -30 | -32 | -8.6 | 8.4 | 2 | 6.2 | i | -7
COc1ccc(NC(=S)N/N=C/c2cccn2Cc2ccc(F)cc2)cc1 | 5 | 0 | -14 | -14 | -1.5 | 15 | 4 | ? | . | 7
CC(=O)OC1COC(N2CCc3cc([N+](=O)[O-])ccc32)C(OC(C)=O)C1OC(C)=O (stereo not drawn) | -8 | 2 | . | . | . | . | -13 | -0.9 | . | -3
O=C(c1scc2c1CCCC2)N1CCOCC1 | 0 | 11 | . | . | . | . | -29 | 8.5 | . | 0
O=C1Nc2cc(C(=O)NCCCN3CCOCC3)ccc2S/C1=C/c1ccccc1F | 40 | -12 | -5 | -6 | 0.6 | -3.9 | -6 | 7.9 | i | 3
COc1cc(/C=N/NC(=O)c2cc(-c3c(C)nn(-c4ccccc4)c3C)n[nH]2)ccc1O | -10 | -15 | -53 | -73 | -19 | 2.8 | 84* | 3.4 | i | 35
CCOC(=O)Cn1nc(C)c(-c2ccccc2)c1N | 19 | -4 | . | . | . | . | 36 | -1.1 | . | -2
CC(=O)Nc1ccc(Oc2nc(-c3ccccn3)nc3ccccc23)cc1 | -2 | -13 | -16 | -18 | -5.8 | -2.1 | . | 5.7 | i | -6
COc1ccccc1NC(=O)Cn1c(=O)n(-c2ccccc2)c(=O)c2oc3ccccc3c21 | -35 | -7 | . | . | . | . | -2 | 2.9 | . | 3
CC1Cc2ccccc2N1S(=O)(=O)c1cccc(C(=O)OCC(=O)NC2CCS(=O)(=O)C2)c1 (stereo not drawn) | 1 | -7 | . | . | . | . | . | 9.8 | . | -1
c1cnc2c(SCc3ccc(-c4nnco4)cc3)cccc2c1 | -2 | 0 | . | . | . | . | -8 | -1.7 | . | 13
O=C(COC(=O)c1ccc(C(F)(F)F)cc1)Nc1cccc(S(=O)(=O)NC2=NCCCCC2)c1 | . | . | . | . | . | 0.6 | 4 | . | i | -6
COc1ccc(/C=C/C(=O)NC(=S)Nc2ccccc2C(=O)NC2CCCCC2)cc1 | ? | 7 | 12 | 6 | 1.5 | -6.0 | 0 | 5.3 | i | 79*
CCOC(=O)Cc1csc(NC(=O)c2cnc3sc(C)cn3c2=O)n1 | 4 | 4 | -13 | -8 | -4.9 | -6.3 | -4 | -0.3 | i | -3
COc1cc(NC(=O)CN(c2ccc(C)cc2)S(=O)(=O)c2c(C)n[nH]c2C)cc(OC)c1 | 7 | 7 | . | . | . | . | 3 | -1.8 | . | 1
CC(C)c1ccc(C(O)c2nc3ccccc3n2C)cc1 (stereo not drawn) | -78 | 12 | -5 | -1 | 3.7 | -0.4 | 13 | 1.8 | i | -7
O=C(Nc1ccccc1)C1CC(=O)N(Cc2ccccc2)C1 (stereo not drawn) | -5 | -2 | 18 | 11 | 0.2 | 0.4 | 2 | 0.5 | i | -1
CC(=O)OCCCNc1cc(Sc2nc3ccccc3s2)c2nonc2c1[N+](=O)[O-] | 16 | 69* | . | . | . | . | -26 | -1.6 | . | -5
Cn1c(=O)c2c(nc(N3CCCCC3)n2CC(O)COc2ccccc2)n(C)c1=O (stereo not drawn) | -17 | 4 | 9 | 12 | 0.5 | -6.3 | -11 | -3.2 | i | -1
N#Cc1ccncc1Sc1ccc(Cl)cc1 | 1 | 14 | -11 | -19 | -1.7 | -1.2 | -1 | -5.2 | i | -3
CCOC(=O)N1CCN(C(=O)c2ccc3c(=O)n(CCOC)c(=O)[nH]c3c2)CC1 | 0 | -6 | . | . | . | . | -2 | -0.9 | . | -4
Cc1nnc(SCc2ccc(Cl)c(Cl)c2)s1 | -9 | -4 | . | . | . | -5.6 | -7 | ? | i | -25
O=[N+]([O-])c1ccc(Oc2ccc(S(=O)(=O)N3CCOCC3)cn2)cc1 | 1 | 0 | 6 | 6 | -0.3 | -0.1 | -10 | -0.8 | i | .

Next section.
SMILES | Calb FLC | T cruzi inh | Ecoli rRNA inh | Ecoli rRNA inh OD600 | Ecoli rRNA inh RFP | AF4-AF9 inh | ALR inh | RanGTP-Imp inh | FGF22 binding | Beta cell apopt
COc1cccc(CN2CC(C(=O)NCCn3cccn3)CCC2=O)c1 (stereo not drawn) | 1 | -11 | 12 | 3 | 2.1 | -0.6 | -5 | -1.0 | i | 1
CC(C)(C)c1nnc(N/N=C/c2ccc(O)cc2)n(N)c1=O | 8 | 11 | 13 | 2 | 1.7 | 3.2 | 99* | 2.2 | i | -2
COc1ccc(NS(=O)(=O)c2cn(C)cn2)cc1 | -2 | -7 | 20 | -3 | -0.8 | -1.8 | -2 | 1.6 | i | -6
CC(CC(=O)NCCc1ccc(Cl)cc1)S(=O)(=O)c1ccc2c(c1)NC(=O)CO2 (stereo not drawn) | -27 | 4 | -3 | -10 | 0.6 | -5.2 | -6 | 0.9 | i | 2
CC(C)(C)c1cc(C(=O)NCC(=O)OCC(=O)c2cccc([N+](=O)[O-])c2)cc(C(C)(C)C)c1 | -5 | -2 | . | . | . | . | -3 | 32* | . | -10
COc1cccc(N2CCN(c3ccc4nnc(CCC(=O)Nc5ccc(C)cn5)n4n3)CC2)c1 | -8 | 5 | . | . | . | . | 21 | -4.4 | . | 0
CCn1cnc2c1c(=O)n(CC(=O)NCC(C)C)c(=O)n2Cc1ccccc1 | 2 | -3 | 11 | 10 | 11 | 3.3 | 0 | -3.8 | i | -15
Cc1ccc(CN2CC(C(=O)Nc3cc(S(C)(=O)=O)ccc3Cl)CC2=O)cc1 (stereo not drawn) | 0 | 6 | . | . | . | . | 1 | 4.1 | . | 2
O=C(C1=C(O)C(=O)N(c2ncccn2)C1c1ccc(Cl)c(Cl)c1)c1ccco1 (stereo not drawn) | 5 | -13 | . | . | . | . | 34 | -0.3 | . | -4
CCCn1c2c(c(=N)c3c1CCC3)CCCC2 | -24 | 53 | . | . | . | . | -1 | 0.3 | . | 22
Cc1oc2c(CN3CCCC3)c(O)ccc2c(=O)c1-c1ccccc1 | -8 | -13 | 4 | 5 | 12 | 6.2 | -2 | . | i | 0
